A1 inhib = inducers of caspase activity in MEF A1-2A-BIM cells, primary screen, A1 inhibitor project, cell-based, CaspaseGlo luminescence; caspase-Glo luminescence, 3 h; percent of clofoctol signal, DMSO as zero; caspase activation, % (concentration not given with the values); hit rate 0.51% among 21,000; AID 2241, 2010;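 active = most replicate scores above 10, or exactly half above 10 with mean activity above 10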;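 also: effector caspase 3 and 7 activity cleaving a DEVD luciferin substrate; 50 nL library stock added to about 30 µL; numbers are from one replicate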
BJeLR viability = BJeLR cell viability loss, primary screen, luminescence, CellTiterGlo ATP; viability loss activity score, % (no concentration beside the values); BJeLR fibroblasts viability, 48 h; HRASV12, hTERT and SV40 LT/ST transformed; hit rate 0.64% among 30,000; in the data active = viability loss activity score above about 50%; about a fifth of its hits are not listed in these tables;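 also: higher score means fewer live cells and less ATP luminescence; stock transfer was 50 or 100 nL into about 30 µL; 0% = vehicle wells and 100% = a reference killing control; one replicate is shown; the record names a cut of 85%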
Numbers without * were called inactive; nt = not tested or not shown. Some of the compounds tested. The share of hits here may be higher or lower than overall.

Molecule	BJeLR viability	A1 inhib
Cc1noc(C)c1NC(=O)Nc1ccc2c(c1)C(=O)N([C@H](C)CO)C[C@H](C)[C@@H](CN(C)C(=O)Nc1ccccc1)O2	0.4	0.0
CCn1c2ccccc2c2cc(NC(=O)C(C)C)ccc21	-4.7	-0.5
COc1ccc(CN(C)C[C@H]2Oc3c(NC(=O)Nc4ccccc4)cccc3C(=O)N([C@@H](C)CO)C[C@@H]2C)cc1	1.2	nt
CCNC(=S)N(CCc1c(C)[nH]c2ccccc12)Cc1ccccn1	-0.5	nt
CC(C)NC(=O)Nc1cccc2c1O[C@@H](CN(C)C(=O)NC1CCCCC1)[C@@H](C)CN([C@H](C)CO)C2=O	-4.5	nt
C=CCn1c(=O)c2c(nc3n2CC(C)CN3Cc2ccccc2)n(C)c1=O (stereo unspecified)	0.1	-0.2
CC1CCCC(NC(=O)CCCn2c(=O)[nH]c3cc(Cl)ccc3c2=O)C1C (stereo unspecified)	-8.0	nt
C[C@@H]1CN([C@@H](C)CO)C(=O)c2cc(NS(C)(=O)=O)ccc2O[C@H]1CN(C)S(=O)(=O)c1ccccc1	0.5	0.3
CCOc1cc(/C=C2\SCOC2=O)ccc1O	-11	-0.4
CC(C)NC(=O)c1ccc2c(c1)N(Cc1ccccc1)C(=O)CS2	-0.2	0.7
C[C@H]1CN([C@@H](C)CO)C(=O)c2cc(NC(=O)CCCN(C)C)ccc2O[C@@H]1CN(C)Cc1ccc(C(F)(F)F)cc1	-2.0	-0.1
COc1ccc(NC(=O)N(C)C[C@H]2Oc3ccc(NC(=O)Nc4ccc(C(F)(F)F)cc4)cc3C(=O)N([C@@H](C)CO)C[C@H]2C)cc1	-0.8	-1.2
CC1=C(C(=O)N(C)Cc2ccccc2)C2(CCC(C)CC2)OC1=O (stereo unspecified)	4.4	nt
COC(=O)C1CCCN1S(=O)(=O)c1ccccc1 (stereo unspecified)	-3.9	0.6
Cc1ccc(-n2c(SCC(=O)C(C)(C)C)nnc2-c2ccncc2)cc1	-1.4	2.1
C[C@H](CO)N1C[C@H](C)[C@H](CN(C)C(=O)Nc2cccc3ccccc23)Oc2c(NC(=O)NC3CCCCC3)cccc2C1=O	-3.8	nt
Cc1c(Cl)cccc1Nc1nc(N)nc(CSC(=S)N(C)C2CCCCC2)n1	-9.2	-0.4
CC(C)NC(=O)Nc1ccc2c(c1)C(=O)N([C@H](C)CO)C[C@@H](C)[C@H](CN(C)CC1CCCCC1)O2	0.3	-0.1
CCN1CCCC1CNC(=O)c1[nH]c2cc(OC)ccc2c1Sc1ccc(Cl)cc1 (stereo unspecified)	-0.4	1.1
C[C@@H]1CN([C@@H](C)CO)C(=O)c2cccc(NC(=O)C3CCOCC3)c2O[C@@H]1CN(C)Cc1ccc(Oc2ccccc2)cc1	1.4	nt
Cc1ccc(S(=O)(=O)N(C)C[C@H]2Oc3c(NC(=O)Nc4ccc(F)cc4)cccc3C(=O)N([C@H](C)CO)C[C@@H]2C)cc1	-0.7	nt
CSc1nc2ccccc2n1CC(=O)Nc1ccccc1	-3.0	-0.3
CN(/N=C/c1ccncc1)C1=NCCN1	-4.1	1.2
O=C1CC2(CCCC2)C(=O)N1C1CCN(c2ncc(C(F)(F)F)cc2Cl)CC1	7.5	-1.1
C[C@@H]1CN([C@@H](C)CO)C(=O)c2cc(NS(=O)(=O)c3ccc(F)cc3)ccc2O[C@@H]1CN(C)S(=O)(=O)c1ccc(Cl)cc1	-4.7	-0.3
C[C@@H]1CN([C@@H](C)CO)C(=O)c2cccc(NC(=O)C3CCOCC3)c2O[C@@H]1CN(C)Cc1ccc(-c2ccccc2)cc1	-6.1	nt
O=C(NCCOc1ccccc1)c1ccc(=O)[nH]c1	-1.0	-0.9
C[C@H](CO)N1C[C@H](C)[C@H](CN(C)Cc2ccccc2)Oc2ccc(NC(=O)Nc3ccccc3)cc2C1=O	-1.2	0.1
Nc1c(C(=O)c2ccccc2)oc2ccccc12	-1.7	nt
C[C@H]1CN([C@@H](C)CO)C(=O)c2cc(NS(C)(=O)=O)ccc2O[C@H]1CN(C)C(=O)Nc1ccccc1	6.5	0.7

5 records drawn at random from those above:
Molecule	BJeLR viability	A1 inhib
C[C@@H]1CN([C@@H](C)CO)C(=O)c2cc(NS(=O)(=O)c3ccc(F)cc3)ccc2O[C@@H]1CN(C)S(=O)(=O)c1ccc(Cl)cc1	-4.7	-0.3
CC(C)NC(=O)Nc1cccc2c1O[C@@H](CN(C)C(=O)NC1CCCCC1)[C@@H](C)CN([C@H](C)CO)C2=O	-4.5	nt
Cc1noc(C)c1NC(=O)Nc1ccc2c(c1)C(=O)N([C@H](C)CO)C[C@H](C)[C@@H](CN(C)C(=O)Nc1ccccc1)O2	0.4	0.0
O=C(NCCOc1ccccc1)c1ccc(=O)[nH]c1	-1.0	-0.9
C[C@H](CO)N1C[C@H](C)[C@H](CN(C)C(=O)Nc2cccc3ccccc23)Oc2c(NC(=O)NC3CCCCC3)cccc2C1=O	-3.8	nt

(next part)
Molecule	BJeLR viability	A1 inhib
CCc1ccc(NC(=O)CCn2c(=O)oc3ccccc32)cc1	-3.2	nt
Cc1ccc(S(=O)(=O)Nc2ccc3c(c2)C(=O)N([C@@H](C)CO)C[C@@H](C)[C@@H](CN(C)C(=O)NC2CCCCC2)O3)cc1	-4.2	1.3
COc1ccc(S(=O)(=O)Nc2cccc3c2O[C@H](CN(C)S(=O)(=O)c2ccc(Cl)cc2)[C@H](C)CN([C@H](C)CO)C3=O)cc1	-3.6	nt
CCN1CCCC1CNC(=O)CSc1cc(=O)n(C)c2cc(Cl)ccc12 (stereo unspecified)	3.9	nt
C[C@@H]1CN([C@H](C)CO)C(=O)c2cc(N(C)C)ccc2O[C@H]1CN(C)Cc1ccncc1	1.6	-0.7
Cc1oc(C(C)(C)C)cc1C(=O)NCc1ccc(C(=O)O)o1	-0.1	-0.2
C[C@H]1CN([C@@H](C)CO)C(=O)c2cccc(NC(=O)C3CCCCC3)c2O[C@@H]1CN(C)Cc1ccc(-c2ccccc2)cc1	2.2	nt
CNC[C@H]1Oc2ccc(NC(=O)NC(C)C)cc2C(=O)N([C@H](C)CO)C[C@@H]1C	2.8	0.2
CC(C)NC(=O)N(C)C[C@@H]1Oc2c(cccc2N(C)C)C(=O)N([C@@H](C)CO)C[C@H]1C	-3.0	nt
C[C@H]1CN([C@@H](C)CO)C(=O)c2cc(NC(=O)Nc3ccc4c(c3)OCO4)ccc2O[C@@H]1CN(C)C(=O)Nc1ccc2c(c1)OCO2	-3.2	-0.6
C[C@H](CO)N1C[C@H](C)[C@@H](CN(C)CC2CCCCC2)Oc2ccc(NS(=O)(=O)c3ccc(Cl)cc3)cc2C1=O	-2.9	-0.3
CCOC(=O)C1=C(c2ccc(OC)cc2)NC(=O)NC1c1ccc(OC)cc1 (stereo unspecified)	7.6	1.4
C[C@H](CO)N1C[C@H](C)[C@@H](CN(C)C(=O)NC2CCCCC2)Oc2ccc(NS(=O)(=O)c3ccc(F)cc3)cc2C1=O	-0.1	-0.4
C[C@H]1CN([C@@H](C)CO)C(=O)c2cc(NS(C)(=O)=O)ccc2O[C@@H]1CN(C)S(=O)(=O)c1cccs1	-3.6	1.0
Cc1cc(C(=O)Nc2cccc3c2O[C@@H](CN(C)S(=O)(=O)c2cn(C)cn2)[C@@H](C)CN([C@H](C)CO)C3=O)n(C)n1	-4.5	nt
CC1=C(c2ccc(C)cc2)S(=O)(=O)NC1=NC1CCN(Cc2ccccc2)CC1	1.5	9.6*
Cc1cccc(-n2ncc3c(Nc4ccc(-c5ccccc5)cc4)ncnc32)c1	0.4	0.0
CC(C)(O)CC[C@@H](O)[C@](C)(O)[C@H]1CC[C@@]2(O)C3=CC(=O)[C@@H]4C[C@@H](O)[C@@H](O)C[C@]4(C)C3CC[C@]12C (stereo partly specified)	-3.3	0.0
C[C@@H]1CN([C@H](C)CO)C(=O)c2cccc(NC(=O)Nc3ccc(F)cc3)c2O[C@@H]1CN(C)C(=O)Nc1ccc2c(c1)OCO2	-0.2	nt
CC(C)(C)S(=O)(=O)/C(C#N)=C/N1CCC(n2cccc2)CC1	-4.1	1.6
Cc1csc(NC2c3ccccc3C(=O)N2Cc2ccccc2)n1 (stereo unspecified)	1.4	nt
C[C@H]1CN([C@@H](C)CO)C(=O)c2cc(NC(=O)NC3CCCCC3)ccc2O[C@@H]1CN(C)C(=O)Nc1cccc2ccccc12	-0.5	0.5
Oc1c(C=NCc2ccccc2)sc2ccccc12	1.3	-3.4
CC(NC(=O)Cn1cccc1C(=O)c1ccccc1)C12CC3CC(CC(C3)C1)C2 (stereo unspecified)	-0.4	1.4
C[C@H]1CN([C@@H](C)CO)C(=O)c2cccc(NC(=O)c3ccncc3)c2O[C@@H]1CN(C)CC1CC1	3.4	nt
C[C@H]1CN([C@@H](C)CO)C(=O)c2cc(NC(=O)CCCN(C)C)ccc2O[C@@H]1CN(C)CC1CCCCC1	1.5	-0.5
COc1ccc(S(=O)(=O)Nc2ccc3c(c2)C(=O)N([C@@H](C)CO)C[C@H](C)[C@H](CN(C)S(C)(=O)=O)O3)cc1	0.9	-0.9
CCC(=O)N1CCc2cc(S(=O)(=O)Nc3ccc(CC)cc3)ccc21	4.6	nt
O=C(O)CCc1nc2ncccc2c(=O)n1Cc1ccc(F)cc1	0.7	-0.1
Cn1cc(C(=O)N2CCCC2)c(=O)c2cc(S(=O)(=O)N3CCCC3)ccc21	0.2	nt
COc1ccc(-c2c(C)nn3c(N)c(-c4ccccc4)cnc23)cc1	2.6	-0.7
CC(c1ccncc1)N(CCN(C)C)C(=S)Nc1cc(F)cc(F)c1 (stereo unspecified)	-0.7	0.3
C[C@@H]1CN([C@@H](C)CO)C(=O)c2cc(NC(=O)c3ccncc3)ccc2O[C@H]1CN(C)C	1.0	-0.4
O=C(CCN1C(=O)c2ccccc2C1=O)N1CCC(c2ccccc2)C1 (stereo unspecified)	-1.3	nt
C[C@H]1CN([C@@H](C)CO)C(=O)c2cccc(NC(=O)c3ccncc3)c2O[C@@H]1CN(C)S(=O)(=O)c1ccc(F)cc1	-2.8	nt
Cc1ccc(-c2ccc(OC(=O)c3ccccc3F)cc2)cc1	-8.1	-3.2
Nc1nc(N2CCOCC2)ncc1S(=O)(=O)c1ccc(Cl)cc1	3.5	-0.3
O=C(Nc1ccc(-c2nc3ccccc3s2)cc1)Nc1cc(F)cc2c1OCOC2	-7.2	-0.4
CO/N=C(/C(=O)N[C@@H]1C(=O)N2C(C(=O)O)=C(COC(C)=O)CS[C@H]12)c1csc(N)n1	-4.0	0.2
CC(=O)Nc1cccc(O)c1	-16	0.1
C[C@@H]1CN([C@H](C)CO)C(=O)c2cccc(NC(=O)NC3CCCCC3)c2O[C@@H]1CN(C)C(=O)NC1CCCCC1	2.0	nt
C[C@@H]1CN([C@@H](C)CO)C(=O)c2cccc(NS(=O)(=O)c3ccc(F)cc3)c2O[C@H]1CN(C)S(=O)(=O)c1ccccc1	1.0	nt
CCC(C)C1NC(=O)c2c1n(C)c1ccccc1c2=O (stereo unspecified)	6.2	0.3
C[C@H]1CN([C@@H](C)CO)C(=O)c2cccc(NS(=O)(=O)c3ccc(Cl)cc3)c2O[C@H]1CN(C)S(=O)(=O)c1cn(C)cn1	-1.0	nt
CCN1C(=O)/C(=C/C=C2\Sc3ccc(Cl)cc3N2C)SC1=S	1.8	0.0
C[C@@H]1CN([C@@H](C)CO)C(=O)c2cccc(NC(=O)C3CCCCC3)c2O[C@H]1CN(C)S(=O)(=O)c1cn(C)cn1	-1.6	nt
C[C@@H]1CN([C@@H](C)CO)C(=O)c2cccc(NC(=O)c3ccc(-c4nccs4)cc3)c2O[C@H]1CN(C)S(=O)(=O)c1cn(C)cn1	-0.7	nt
COc1cccc(C2CC(c3cccs3)=NN2C(=O)CSC2CCCCC2)c1OC (stereo unspecified)	-0.8	-0.3
C[C@@H]1CN([C@@H](C)CO)C(=O)c2cc(NC(=O)CCCN(C)C)ccc2O[C@@H]1CN(C)Cc1ccc(Oc2ccccc2)cc1	13	-0.4
Cc1ccc(NCC(O)Cn2c3ccccc3c3ccccc32)cc1 (stereo unspecified)	1.3	3.8
c1ccc2sc(SCc3cn4cccnc4n3)nc2c1	-1.8	-2.2
C[C@@H]1CN([C@@H](C)CO)C(=O)c2cc(N(C)C)ccc2O[C@H]1CN(C)Cc1ccc2c(c1)OCO2	3.6	-0.5
O=C(Nc1ccc(N2CCOCC2)cc1)c1cnc2ccccc2n1	4.0	-6.7
O=C(NCc1ccc2c(c1)OCO2)c1cc2ccccc2s1	6.1	nt
CC(C)(C)c1csc(-c2ccc(-c3cccs3)s2)n1	2.3	-0.1
C[C@@H]1CN([C@H](C)CO)C(=O)c2cc(NC(=O)Nc3cccc4ccccc34)ccc2O[C@@H]1CN(C)Cc1ccc(Oc2ccccc2)cc1	-0.9	-0.2
CCOC(=O)c1oc2ccccc2c1CN1CCN(C(=O)c2ccccc2)CC1	-0.8	-0.8
COc1ccccc1C(=O)Nc1cccc(-c2csc(-c3ccccc3)n2)c1	-2.7	-1.9

Shown as labelled records: two of the compounds above.
> C[C@@H]1CN([C@H](C)CO)C(=O)c2cc(NC(=O)Nc3cccc4ccccc34)ccc2O[C@@H]1CN(C)Cc1ccc(Oc2ccccc2)cc1
  BJeLR viability: -0.9 | A1 inhib: -0.2

> CCOC(=O)c1oc2ccccc2c1CN1CCN(C(=O)c2ccccc2)CC1
  BJeLR viability: -0.8 | A1 inhib: -0.8

Source: PubChem BioAssay
